Rce1 inhib = blocks yeast Ras-converting enzyme; Q03530; yeast membranes, quenched prenylated peptide cleavage fluorescence; calls only; actives 0.27% (n = 290,000); AID 2563;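 active means fall in fluorescence gain of 50% or more versus controls, with final raw signal at or below 3038400; inconclusive means same 50% fall but final raw signal above 3038400; inactive means fall in fluorescence gain under 50%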;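 further: plate controls were neutral control wells for no effect and wells lacking membranes for full effect; tested at 10 µM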
Target sequence (Q03530 whole entry, looked up): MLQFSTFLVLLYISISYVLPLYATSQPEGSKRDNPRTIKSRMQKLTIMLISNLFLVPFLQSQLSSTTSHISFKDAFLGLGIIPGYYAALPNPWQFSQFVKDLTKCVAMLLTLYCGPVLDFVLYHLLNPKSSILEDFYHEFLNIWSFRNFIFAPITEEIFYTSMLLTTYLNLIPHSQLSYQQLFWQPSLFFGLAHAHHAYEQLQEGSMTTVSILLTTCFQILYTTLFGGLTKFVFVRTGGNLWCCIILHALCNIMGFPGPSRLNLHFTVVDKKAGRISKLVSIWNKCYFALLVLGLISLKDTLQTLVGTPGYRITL
PABP polyA inh = blocks human PABP binding to poly(A) RNA; P11940; fluorescence polarization; inhibition, % at 35 µM; actives 1% (n = 290,000); AID 2014;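 active means 50% or more with normal probe brightness, or confirmed in later tests; inconclusive means above 50% with abnormal brightness, or retests that disagree; inactive means below 50% or failed in later tests; about a fifth of its hits are not listed in these tables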;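 further: calls also rest on retests at 20 µM and on dose response follow-up; controls were probe without protein and protein plus probe with vehicle; some compounds called inactive have numbers as strong as hits; many hits fall short of the cut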
Yeast UUG start = alters start codon recognition fidelity in yeast. actives 0.13% (n = 350,000). S. cerevisiae UUG-firefly luciferase reporter, luminescence/redox ratio. activity score, % at 18.7 µM;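 active means replicate mean at a twofold rise or more, about +100% in these data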;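 further: firefly luciferase made from a UUG start codon reports start codon fidelity; reporter light over untreated wells divided by growth signal over untreated wells; some hits fall short of that in this replicate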
MT1-MMP act inh = inhibitors of human MT1-MMP activation | AID 651647 | HT1080 RFP-PRO-GFP cells, GFP/RFP ratio fluorescence, overnight; percent of plate control window, DMSO zero | actives 0.061% (n = 360,000) | GFP/RFP ratio change, % at 20 µM;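 active means GFP/RFP ratio change of at least 30% with cell ATP level not reduced by more than half and red fluorescence within 50% of control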; further: strong numbers were not always called active
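Test system: HT1080 RFP-PRO-GFP cells; Benchmarks: DMSO and RFP-L50D-GFP cell wells; Timing: cells overnight before dosing, compound overnight, 37 °C, 5% CO2; Compound: one 20 µM compound dose with 1% DMSO; Read-out: GFP/RFP fluorescence ratio.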
eIF4H FP inh = inhibitors of RNA binding by human eIF4H; Q15056; eIF4H fluorescence polarization binding assay; inhibition, % at 35 µM; actives 0.94% (n = 290,000);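 active means 50% or more with normal probe brightness, or confirmed in later tests; inconclusive means above 50% with abnormal brightness, or retests that disagree; inactive means below 50% or failed in later tests; about a fifth of its hits are not listed in these tables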;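 further: calls also rest on retests at 20 µM and on dose response follow-up; 0% = protein and probe with vehicle and 100% = probe without protein; strong numbers were not always called active; many hits fall short of the cut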
CSC inhib = cancer stem cell inhibition; inhibition, % at 7.5 µM; cancer stem cell-like cells viability, luminescence; actives 1.1% (n = 300,000);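 active means mean at 75% or more and at least half the replicates too; inconclusive means mean and replicates disagree; tested in HMLE shEcad cells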;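 further: 0% = median of negative and 100% = median of positive control wells; the first replicate is given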
Env fusion inh = HIV envelope-mediated fusion inhibition | HeLa-JRFL Env/CEM21 cell fusion, luciferase | inhibition, % at 12.3 µM | actives 1.1% (n = 360,000);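 active means mean replicate inhibition score of at least 50 and every replicate individually at or above 50; inconclusive means only one of the two criteria met; inactive means mean below 50 and not all replicates reaching 50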;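 further: 0% = plate neutral controls and 100% = maraviroc near 300 nM; one replicate is shown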
MT1-MMP act inh RFP = second read-out of MT1-MMP act inh, no call of its own (marks repeat the call); RFP signal change, %; measured here: RFP expression control read;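 0 = vehicle wells; hits needed this value within 50% of zero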
Starred values were filed as active, the others as inactive; i = inactive; u = inconclusive; x = not tested or not shown.

SMILES | Rce1 inhib | PABP polyA inh | Yeast UUG start | MT1-MMP act inh | MT1-MMP act inh RFP | eIF4H FP inh | CSC inhib | Env fusion inh
CC(C)c1onc(C(=O)N2C(C)CCCC2C)c1[N+](=O)[O-] (stereo not given) | i | 0 | x | -1 | -2 | -3 | -4 | x
COc1ccc(CN2CCN(S(=O)(=O)c3ccc(C)cc3)CC2)cc1Br | i | 10 | -15 | 5 | 4 | -7 | 23 | 48
CC1CCc2c(sc(Nc3nc4c(F)cccc4s3)c2C(N)=O)C1 (stereo not given) | i | -9 | x | -19 | 23 | 21 | 34 | 11
CC(C)(C)n1nnnc1C(c1cccs1)N1CCN(Cc2ccccc2)CC1 (stereo not given) | i | 8 | -23 | 0 | 3 | 1 | -6 | x
COCC(C)NC(=O)COc1nncc2ccccc12 (stereo not given) | i | 10 | x | -2 | 3 | 1 | -22 | -12
Cn1cc([N+](=O)[O-])c(C(=O)Nc2ccc(Br)cn2)n1 | i | -2 | -3 | -10 | -13 | 14 | 40 | -98
CC1CCN(C(=O)CN2C(=O)c3cccc4cccc(c34)C2=O)CC1 | i | -10 | -19 | 3 | 1 | -16 | -12 | -12
Cc1nc2ccccc2c(=O)n1NC(=O)c1ccco1 | x | -4 | -13 | 6 | 10 | -2 | 3 | x
Cc1ccc(NC(=O)CSCC(=O)NCc2cccc(C(F)(F)F)c2)cc1 | i | x | -7 | -2 | -3 | x | 4 | 9
O=[N+]([O-])c1ccccc1-c1ccc(C(=S)N2CCCCC2)o1 | i | 12 | -22 | -15 | 7 | 12 | -11 | -54
COc1ccc(Oc2nc(-c3ccncc3)nc3ccccc23)cc1 | i | -13 | -18 | -5 | -4 | -2 | 40 | 20
COc1ccc(CN2CCN(c3ccccn3)CC2)cc1OCc1ccccc1 | i | 7 | -11 | -2 | -9 | 6 | -5 | u
CCN(CC)c1ccc(C2Nc3cccc4cccc(c34)N2)cc1 | i | 2 | 1 | 0 | 1 | 6 | -6 | -3
CCCCn1c(/C=N/Nc2nc3ccccc3[nH]2)nc2ccccc21 | i | -12 | x | 7 | -5 | 6 | x | x
CCCCNC(=O)C(NC(=O)c1cccc2ccccc12)C(=O)c1ccccc1 (stereo not given) | x | x | -18 | -2 | -2 | x | x | 21
CCOC(=O)C1=C(C)OC(N)=C(C#N)C1c1cc(F)ccc1F (stereo not given) | i | -2 | 15 | -2 | 2 | -3 | -4 | -21
CSCCC(NC(=O)COc1ccccc1)C(=O)NCC(C)(C)N1CCOCC1 (stereo not given) | x | x | -12 | 9 | 11 | x | x | -14
Cc1ccccc1OCCCSc1nc2ccccc2[nH]1 | i | -4 | -19 | -2 | -22 | 0 | 35 | 22
Cc1nn(Cc2c(F)cccc2Cl)c(C)c1[N+](=O)[O-] | i | -10 | -6 | -1 | -4 | 6 | 5 | 0
NS(=O)(=O)c1ccc(CCNC(=O)Nc2ccc(Cl)c(Cl)c2)cc1 | i | 20 | 8 | 0 | -5 | 0 | x | -9
CC(C)N(Cc1nccn1C)C(=O)C1CCC(=O)N(CCc2ccccc2)C1 (stereo not given) | x | x | -25 | 1 | 3 | x | x | -12
O=C1[C@H]2[C@@H](C3CC3)N3C(=O)CN(CC4CC4)C(=O)[C@@]3(Cc3ccccc3)[C@H]2C(=O)N1c1ccccc1 | x | x | 4 | -2 | 2 | x | 5 | 70*
COc1ccc(NC(=O)CCCC(=O)c2ccccc2)cc1 | i | -10 | 0 | 2 | -1 | -1 | 9 | 16
COc1cc(/C=C/C2=CC(C)(C)NC(=S)N2)cc(OC)c1OC | i | -4 | x | 15 | 7 | -1 | -18 | -3
O=C(OCn1nnc2ccccc2c1=O)c1ccc(F)c(S(=O)(=O)N2CCOCC2)c1 | x | x | -4 | 1 | 3 | x | x | 6
O=C1N/C(=N\N=C\c2ccc3ncccc3c2)SC1Cc1ccc(SC(F)F)cc1 (stereo not given) | i | 3 | 4 | 7 | -6 | 1 | -5 | -112
Cc1c(O)nc(SCC(=O)Nc2ccc3c4c(cccc24)CC3)n(-c2ccc(F)cc2)c1=O | i | -1 | x | 1 | 0 | 39 | 12 | -13
CS(=O)(=O)Nc1nnc(Cc2ccccc2)s1 | i | 41 | -14 | -5 | 0 | -5 | -5 | x
C=CCNC(=O)C(=O)Nc1ccc2c(c1)N(S(=O)(=O)c1cccs1)CCC2 | i | x | -15 | 0 | -3 | x | x | 0
COc1ccc(/C(C)=C(\C#N)C(=O)OC(C)C)cc1OC | x | 6 | -14 | -1 | -5 | -12 | -13 | -27
CN(Cc1ccccc1)S(=O)(=O)c1ccccc1[N+](=O)[O-] | i | 2 | x | -1 | 5 | -5 | -6 | 15
O=C(N/C(C(=O)N1CCOCC1)=C(\Sc1ncccn1)c1ccccc1)c1ccccc1 | i | 0 | x | 0 | 1 | 1 | -5 | x
COC(=O)c1ccc2c(C(C)(C)O)c(C(C)(C)O)[nH]c2c1 | u | 4 | x | x | x | 3 | 0 | x
CC(=O)c1ccccc1NC(=O)COC(=O)CSCC(=O)Nc1cc(C)on1 | i | x | 0 | 0 | 1 | x | 34 | 5
OCCC1CN(Cc2nc3ccccc3s2)CCN1C1CCCCC1 (stereo not given) | i | -2 | x | 4 | 3 | 4 | 34 | 35
CC(=O)Nc1c(C)ccc(S(N)(=O)=O)c1C | i | -4 | x | -1 | 3 | -4 | 12 | 7
CN1CCc2c(sc(/N=C/c3c[nH]c4ccccc34)c2C(N)=O)C1 | i | 3 | -10 | -19 | -1 | -7 | -27 | 21
COc1ncnc2c1oc1nc(C(C)C)c3c(c12)CC(C)(C)OC3 | i | -3 | 6 | -1 | -6 | -2 | 9 | -214
CC1CC(C)CN(C(=O)c2ccc(CNc3c(N4CCCC4)c(=O)c3=O)cc2)C1 (stereo not given) | i | 1 | x | 0 | -1 | 0 | -10 | -9
Cc1ccc(NC2CCCN(C(=O)c3ccc4[nH]ccc4c3)C2)cc1C (stereo not given) | i | 5 | 5 | -2 | 0 | 0 | -3 | 7
Cc1ccc(S(=O)(=O)NCCC(=O)NC(C)c2ccccc2)cc1 (stereo not given) | i | x | -7 | -1 | -1 | x | -9 | -3
OC(CNCC1COc2ccccc2O1)COc1ccccc1F (stereo not given) | i | 3 | x | 2 | 7 | 0 | 2 | -3
CC(=O)Nc1nc(=S)n(-c2ccccc2)[nH]1 | i | 5 | -9 | 2 | 2 | -8 | x | -78
CCOc1ccc(NC(=S)N2CCC(NC(=O)c3ccccc3C)CC2)cc1 | i | 5 | -20 | -1 | -3 | 5 | -7 | 9
CCc1nnc(NC(=O)CCC(=O)O)s1 | i | 5 | -11 | -2 | 8 | 5 | -4 | 6

Four compounds picked at random from those above:
SMILES | Rce1 inhib | PABP polyA inh | Yeast UUG start | MT1-MMP act inh | MT1-MMP act inh RFP | eIF4H FP inh | CSC inhib | Env fusion inh
CN(Cc1ccccc1)S(=O)(=O)c1ccccc1[N+](=O)[O-] | i | 2 | x | -1 | 5 | -5 | -6 | 15
Cc1ccc(NC2CCCN(C(=O)c3ccc4[nH]ccc4c3)C2)cc1C (stereo not given) | i | 5 | 5 | -2 | 0 | 0 | -3 | 7
O=C(N/C(C(=O)N1CCOCC1)=C(\Sc1ncccn1)c1ccccc1)c1ccccc1 | i | 0 | x | 0 | 1 | 1 | -5 | x
CCc1nnc(NC(=O)CCC(=O)O)s1 | i | 5 | -11 | -2 | 8 | 5 | -4 | 6

(further entries)
SMILES | Rce1 inhib | PABP polyA inh | Yeast UUG start | MT1-MMP act inh | MT1-MMP act inh RFP | eIF4H FP inh | CSC inhib | Env fusion inh
O=C(COc1ccccc1Br)Nc1ccc2c(c1)OCCCO2 | i | 0 | x | 0 | -4 | -2 | 1 | -152
CCc1nnc(NC(=O)CSc2nnc(Cc3ccccc3)o2)s1 | i | -11 | 1 | 6 | 5 | -5 | -9 | -10
CNc1c([N+](=O)[O-])cnn1-c1ccccn1 | i | -5 | x | 4 | 1 | -8 | -17 | -25
N#C/C(=C(\O)c1cc(Cl)sc1Cl)c1nc2ccccc2[nH]1 | i | 5 | -13 | -11 | -11 | 0 | 16 | 5
CCn1nccc1C(=O)Nc1ccc(Cl)cn1 | i | -1 | -1 | -9 | -3 | 10 | -19 | -35
COc1cc(C(=O)NCC2(N(C)C)CCCCC2)ccc1OCc1ccccc1 | i | -3 | 5 | 1 | 0 | 8 | 3 | 3
CCOc1ccc(S(=O)(=O)N(CC(=O)NCc2cccnc2)c2ccc(F)cc2)cc1 | i | 19 | -22 | 3 | -2 | -8 | -9 | 11
COc1ccc(NC(=O)CN2CCC(C(N)=O)(N3CCCCC3)CC2)cc1 | i | -19 | 9 | 5 | -1 | -9 | -3 | 77*
S=C(Nc1ccccc1)Nc1nccs1 | i | 6 | -28 | 3 | -2 | 2 | 11 | -34
O=C(CCN1C(=O)/C(=C/c2ccccc2)SC1=S)NC1CCS(=O)(=O)C1 (stereo not given) | i | 4 | -8 | 0 | 3 | 0 | -5 | -6
CCOc1ccc(N(CC(=O)NCCc2ccc(C)cc2)S(=O)(=O)c2c(C)noc2C)cc1 | i | -3 | -24 | -2 | -3 | -7 | -4 | 6
O=C(CCC(=O)N(Cc1ccco1)C(C(=O)NC1CCCC1)c1ccncc1)Nc1cccnc1 (stereo not given) | i | 18 | -22 | -2 | 0 | 16 | 0 | 7
O=C1CCCN1CCCNc1nc2c(S(=O)(=O)c3ccccc3)nnn2c2ccc(Cl)cc12 | i | -2 | 0 | -5 | -5 | -23 | -6 | 5
O=C(O)C1C2CCC(C2)C1C(=O)NCc1ccco1 (stereo not given) | i | -9 | 2 | 3 | 2 | -3 | -1 | x
CC(=O)c1cc(-c2ccc(F)cc2)n(CCC(=O)Nc2cccnc2)c1C | i | 8 | x | -3 | -1 | -15 | -3 | 3
Cc1cccc(Nc2nc(NC(C)C)nc(Oc3ccc(=O)n(C)n3)n2)c1 | i | 3 | -1 | 7 | 0 | 0 | 4 | -133
CCn1c(SCC(=O)Nc2ccc(OC)c(OC)c2)nnc1-c1ccco1 | i | 3 | x | 8 | -2 | -9 | -8 | -2
O=C(NCCc1ccccc1)C(=O)NCCC1CCCCN1S(=O)(=O)c1cccs1 (stereo not given) | i | x | -11 | 2 | -2 | x | -8 | 8
COc1cc(/C=C2\SC(=S)N(NS(=O)(=O)c3ccc(C)cc3)C2=O)ccc1O | i | 6 | x | -25 | 58 | 28 | 20 | 14
CN(C)c1ccc(NC(=O)CN2CCc3ccccc3C2)cc1 | x | -1 | 4 | 5 | 4 | 7 | -14 | -78
NC(=O)C1CCCN(CC(O)COCc2ccc(Cl)cc2)C1 (stereo not given) | i | 1 | -16 | 6 | 1 | -2 | -5 | 5
O=C1OCC(CO)(CO)N=C1NNc1cc(Cl)ccc1Cl | i | 12 | -12 | 0 | 4 | 1 | -9 | -18
O=C(Cn1cnc2c(nnn2Cc2ccccc2)c1=O)NCc1ccco1 | i | 1 | -13 | 6 | 5 | 4 | -3 | 13
O=C(O)CN1C(=O)/C(=C\c2ccccc2OCc2ccccc2)SC1=S | x | x | -18 | 2 | 5 | x | x | -27
CS(=O)(=O)N(CC(=O)N1CCCCCC1)c1cccc(Br)c1 | i | 5 | 12 | 0 | 3 | -4 | 6 | -35
Cc1cccn2c(=O)c(/C=C(\C#N)C(=O)NC3CCS(=O)(=O)C3)c(N3CCC(C)CC3)nc12 (stereo not given) | i | -7 | -3 | -17 | -4 | -6 | 9 | 25
CCOc1ccc(-n2c(SCC(=O)Nc3nccs3)nc3c(c2=O)SCC3)cc1 | i | -4 | 3 | 5 | 6 | -10 | 12 | -31

High-throughput results from PubChem.
